Screens from PubChem BioAssay.
PrP UTR inh: suppresses PrP 5' UTR mRNA reporter expression | 0.35% of 340,000 active | cell-based PrP 5' UTR mRNA reporter, plate reader | inhibition, % (no concentration beside the values);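 active means every replicate at 50% or more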;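 further: 0 = median of the neutral control wells; tested in H4 reporter cells; numbers are from one replicate; inactives centre near -14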
Mtb hypoxia inh: Mtb hypoxia fluorescent reporter inhibition; 0.1% of 300,000 active; fluorescence inhibition, % (no concentration beside the values); M. tuberculosis hypoxia-regulated fluorescent reporter, fluorescence; AID 1159583;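 active means 35 to 45% if threefold the growth effect, above 45% if 1.5-fold the growth effect; inactive means the rest, general growth blockers included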;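 further: wells of about 50 µL received 100 nL stock; 0% = vehicle wells and 100% = reference inhibitor wells; whole bacteria with a GFP reporter of the hypoxia response; strong numbers were not always called active; many hits fall short of the cut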
RN4220 kill: S. aureus RN4220 growth inhibition | 0.33% of 330,000 active | inhibition, % (no concentration beside the values) | OD600, 16 h | AID 1259311;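 active means z-score of -3 or lower and OD600 up to 0.18 on both plates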;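 further: plate controls were untreated cells for no effect and reference antibiotic for full effect; stock transfer was 100 nL into about 80 µL; one replicate is shown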
Bead autofluor: counter-screen for toxin protease inhibitors: compound fluorescence | compound autofluorescence counterscreen, microsphere flow cytometry; stronger effect = higher value | fluorescence intensity (no concentration beside the values) | 3.1% of 360,000 active;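 active means at least 3 SD above the mean of all compounds, about 16000 in these data; inconclusive means too few beads counted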;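 further: 100 nL of 1 mM stock went into each well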
ugtP null kill: growth inhibition of S. aureus ugtP deletion strain; S. aureus RN4220 ugtP deletion, OD600 growth, 16 h; some inactives read as strong as hits; growth inhibition, % (test concentration not listed); AID 1259309; 0.54% of 330,000 active;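 active means z-score under -3 and OD600 up to 0.15 on both plates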;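 further: plate controls were untreated wells for no effect and antibiotic for full effect; wells of about 80 µL received 100 nL stock; the first replicate is given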
BJeLR viability: kills HRASV12-expressing BJeLR cells. BJeLR (HRASV12) viability, CellTiter-Glo ATP luminescence, 48 h; reference of the scale not given here. inhibition, % (no concentration beside the values). 0.17% of 300,000 active. AID 1554;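 active means replicate mean above 50%; inconclusive means above 50% but judged a plate artefact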;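 further: 50 nL library stock added to about 25 µL; numbers are from one replicate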
Mtb hypoxia inh growth: second read-out of Mtb hypoxia inh, no call of its own (marks repeat the call); growth inhibition, %; measured here: M. tuberculosis growth (absorbance);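 0% = vehicle and 100% = reference antibiotic; read after six days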
* hit, by the source's call; u = inconclusive; x = no result given.

item	compound	PrP UTR inh	Mtb hypoxia inh	Mtb hypoxia inh growth	RN4220 kill
1	COc1ccc(-c2oc3ccc(N4CCOCC4)cc3c2C#CC2(O)CCCCC2)cc1	-28.9	8.0	7.2	-6.6
2	N#CCC(=O)N/N=C/c1ccccc1Cl	-39.0	x	x	x
3	CC(C)c1nnc(SCC(=O)N2CCc3ccccc32)n1N	0.1	-17.7	-7.2	9.5
4	COc1ccc(N2CCN(C(=O)CCc3ccc(S(=O)(=O)NCC(C)C)cc3)CC2)cc1	3.9	x	x	3.5
5	O=C(N/C(=C/c1cccc([N+](=O)[O-])c1)C(=O)N1CCCCCC1)c1cccs1	-26.9	4.3	14.7	3.5
6	Cc1cccc(/N=C/c2ccccn2)n1	-19.1	x	x	x
7	CCCCOc1ccc(C(=O)Oc2cc(C)[nH]c(=O)c2[N+](=O)[O-])cc1	-26.3	12.3	-0.6	3.1
8	COc1ccccc1Nc1ncnc2c1cnn2-c1cccc(C)c1	-50.1	3.9	10.4	-4.1

item	Bead autofluor	ugtP null kill	BJeLR viability
1	3730	38.2	8.1
2	4360	x	2.4
3	3610	0.6	-5.4
4	5242	-3.3	11.0
5	11125	-6.6	13.4
6	4730	x	-4.6
7	5087	9.1	4.4
8	5857	-5.1	16.5

item	compound	PrP UTR inh	Mtb hypoxia inh	Mtb hypoxia inh growth	RN4220 kill
9	CC(C)OCCCNC(=O)Nc1cccc2ccccc12	-11.4	0.4	9.4	4.1
10	O=C(CNC(=O)c1ccc(Br)cc1)NN=Cc1cccnc1	x	-0.9	-14.0	5.6
11	COc1c(C=NNC(=O)c2ccncc2)c(CCN(C)C(C)=O)cc2c1OCO2	x	x	x	1.3
12	Cc1cc(C(=O)NP(=O)(N2CCOCC2)N2CCOCC2)c(C)n1-c1ccc(Br)cc1	-20.7	3.1	-9.3	1.0
13	COc1cc2c(cc1OC)CN(C(=S)Nc1ccccc1Cl)CC2	-22.1	-0.4	10.8	-5.1
14	O=C(NC1CCCCC1)C(c1ccco1)N(C(=O)c1csnn1)c1cccc(F)c1 (stereo not given)	-8.0	-6.9	3.1	-1.0
15	C[C@H](NC(=O)c1cccc([N+](=O)[O-])c1)C(=O)OCC(=O)c1ccccc1Br	-24.9	-1.9	-4.6	0.5
16	COC(=O)C1=C(C)N(C)C(=O)NC1c1cc(Cl)cc(Cl)c1OC (stereo not given)	-9.1	4.3	6.8	2.7

item	Bead autofluor	ugtP null kill	BJeLR viability
9	4382	6.2	5.7
10	x	11.7	x
11	x	5.5	x
12	2488	-2.4	-6.1
13	3685	0.7	3.0
14	3907	-3.7	0.6
15	3149	2.5	x
16	17435*	-4.4	-5.1

item	compound	PrP UTR inh	Mtb hypoxia inh	Mtb hypoxia inh growth	RN4220 kill
17	CC(C)(C)C1=CC(O)(c2ccccc2)C=C(C(C)(C)C)C1=O	-24.8	-3.9	4.2	-9.3
18	Cc1cccc(OCC(=O)NCCNC(=O)c2ccncc2)c1	-5.2	14.3	9.1	1.5
19	CC1CCC2(CC1)NC(=O)N(NC(=O)c1ccc(OC(C)C)cc1)C2=O (stereo not given)	-5.8	3.3	-3.0	0.9
20	CC(=O)O[C@H]1CC[C@@]2(C)C(=CC(=O)C3C2CC[C@@]2(C)C3C[C@H](OC(C)=O)[C@@H]2OC(C)=O)C1 (stereo not given in full)	-28.2	11.6	8.4	4.6
21	CC(NC(=O)c1cccs1)C(c1cccs1)N1CCN(Cc2ccccc2)CC1 (stereo not given)	9.8	7.2	-1.1	-6.3
22	c1coc(-c2cc(C3CCNCC3)[nH]n2)c1	-1.2	12.5	1.1	3.2
23	COc1cc(CNCCCCO)ccc1OCc1ccccc1F	-49.1	-2.1	9.8	-1.1
24	COC(=O)C1=C(CN2CCc3ccccc32)NC(=O)NC1c1cc(C)ccc1C (stereo not given)	-7.4	x	x	2.0

item	Bead autofluor	ugtP null kill	BJeLR viability
17	3575	60.8	8.1
18	5797	7.1	4.7
19	x	3.8	x
20	3989	45.9	x
21	10589	15.2	-8.6
22	4824	2.5	3.9
23	4296	2.4	5.4
24	5542	-12.6	-2.2

item	compound	PrP UTR inh	Mtb hypoxia inh	Mtb hypoxia inh growth	RN4220 kill
25	CC12CCC(=O)N1C(C(=O)NCCN1C(=O)S/C(=C\c3ccc(F)cc3)C1=O)CS2 (stereo not given)	-8.4	4.9	-2.5	3.8
26	CONC(=O)C1CCN(C(=O)OCc2ccccc2)CC1	-21.9	x	x	-1.7
27	CC1Oc2ccccc2N(CC(=O)Nc2ccccc2F)C1=O (stereo not given)	-17.1	8.1	4.2	1.8
28	CN(C)CC#CCn1c2ccccc2c2ccccc21	x	8.9	0.7	2.9
29	Cc1cc(C)n(-c2nc3nonc3nc2-n2nc(C)cc2C)n1	-26.1	x	x	1.2
30	CCCN(C(=O)c1ccc([N+](=O)[O-])c(C)c1)c1c(N)n(Cc2ccccc2)c(=O)[nH]c1=O	-21.3	10.5	6.5	-3.5
31	CCC(=O)Nc1ccc(-c2csc(C)n2)cc1	-70.7	-8.1	-5.3	7.2
32	Cc1ccc(C(=O)N2CCN(c3ccc([N+](=O)[O-])c(NCc4cccnc4)c3)CC2)cc1	11.9	-3.5	3.3	-6.0

item	Bead autofluor	ugtP null kill	BJeLR viability
25	u	-0.8	-3.5
26	2355	5.2	-5.9
27	3785	-3.6	-10.2
28	4262	3.4	-1.9
29	2521	7.2	4.8
30	8511	-0.8	x
31	2165	2.2	-8.8
32	2423	9.9	5.4

item	compound	PrP UTR inh	Mtb hypoxia inh	Mtb hypoxia inh growth	RN4220 kill
33	CCC(C(=O)OCC(=O)N(CC)c1c(N)n(Cc2ccccc2)c(=O)[nH]c1=O)c1ccccc1 (stereo not given)	-17.7	-1.2	-2.2	2.1
34	COc1cc(C=NNC(=S)Nc2cccnc2)cc(OC)c1O	x	3.7	-4.9	5.2
35	Brc1ccc(CN2CCNCC2)s1	-4.6	x	x	-1.2
36	CCN(CC)c1ccc(C=NOCC(=O)N2CCCc3ccccc32)cc1	x	5.3	6.5	-3.4
37	COc1ccc(N(CC(=O)NCc2ccccc2OC)S(=O)(=O)c2c(C)nn(C)c2C)cc1	-12.8	3.7	3.8	-9.0
38	COc1ccc(C(=O)N2CCN(c3ccc(C(C)=O)cc3F)CC2)cc1S(=O)(=O)NC1CC1	-52.4	7.8	5.8	1.5
39	O=C(O)CSc1nc2ccccc2o1	-15.8	8.4	6.9	5.9
40	O=C(Cn1nnc(-c2ccccc2Cl)n1)NCc1ccc2c(c1)OCO2	-0.2	x	x	-6.1

item	Bead autofluor	ugtP null kill	BJeLR viability
33	8827	-1.3	x
34	x	4.2	x
35	2761	-7.2	4.4
36	x	39.7	x
37	4315	-2.5	-6.6
38	3329	4.2	x
39	6401	5.9	1.7
40	3634	4.1	-11.6

Complete entries as entered above:
Profile of `CN(C)CC#CCn1c2ccccc2c2ccccc21` : PrP UTR inh: x; Mtb hypoxia inh: 8.9; Mtb hypoxia inh growth: 0.7; RN4220 kill: 2.9; Bead autofluor: 4262; ugtP null kill: 3.4; BJeLR viability: -1.9
Profile of `Cc1cc(C(=O)NP(=O)(N2CCOCC2)N2CCOCC2)c(C)n1-c1ccc(Br)cc1` : PrP UTR inh: -20.7; Mtb hypoxia inh: 3.1; Mtb hypoxia inh growth: -9.3; RN4220 kill: 1.0; Bead autofluor: 2488; ugtP null kill: -2.4; BJeLR viability: -6.1
Profile of `CC(=O)O[C@H]1CC[C@@]2(C)C(=CC(=O)C3C2CC[C@@]2(C)C3C[C@H](OC(C)=O)[C@@H]2OC(C)=O)C1` (stereo not given in full) : PrP UTR inh: -28.2; Mtb hypoxia inh: 11.6; Mtb hypoxia inh growth: 8.4; RN4220 kill: 4.6; Bead autofluor: 3989; ugtP null kill: 45.9; BJeLR viability: x

(cont.)
item	compound	PrP UTR inh	Mtb hypoxia inh	Mtb hypoxia inh growth	RN4220 kill
41	Cc1cc(=O)n2nc(N3CCC(C(=O)N4CCN(C)CC4)CC3)sc2n1	-5.8	6.1	3.8	5.4
42	N#CC(=C(O)CN1CCN(c2ccccc2F)CC1)c1nc(-c2ccc(Cl)cc2)cs1	-10.6	6.1	2.9	6.0
43	CNC(=O)c1c(NC(NC(=O)c2ccco2)C(=O)c2ccc(Cl)cc2)sc2c1CCCC2 (stereo not given)	-22.1	10.9	7.9	0.4
44	CC(=O)c1cc(Cl)ccc1OCC(=O)NC1CCCC1	-44.4	5.7	10.8	1.0
45	CCN(CC(=O)Nc1ccccc1C(F)(F)F)C(=O)c1cc(S(=O)(=O)N2CCCCCC2)ccc1OC	-7.2	5.2	3.4	1.0
46	COc1ccc(-c2cc(C(=O)NC3CCCCC3)no2)cc1OC	-24.3	6.5	-2.3	-0.2
47	O=C(CC12CC3CC(CC(C3)C1)C2)NC1CC1	-12.4	0.2	11.6	4.3
48	C/C(C=NNC(=O)c1nnn(-c2nonc2N)c1C)=C\c1ccccc1	x	4.8	7.2	0.3

item	Bead autofluor	ugtP null kill	BJeLR viability
41	2428	12.4	5.0
42	3051	2.1	x
43	8288	-20.5	0.8
44	5120	3.9	x
45	u	1.3	11.7
46	3182	1.6	2.1
47	3571	2.0	-6.6
48	x	12.3	x

item	compound	PrP UTR inh	Mtb hypoxia inh	Mtb hypoxia inh growth	RN4220 kill
49	CCN(C(=O)c1cc2cc(OC)ccc2oc1=O)c1ccccc1	66.9*	x	x	2.9
50	CCC(C(=O)Nc1ccc2[nH]ncc2c1)c1ccccc1 (stereo not given)	-44.0	16.6	7.0	2.5
51	COc1cc(C=NNC(=O)c2nonc2N)cc(OC)c1OC	x	6.5	-6.9	2.5
52	COc1ccc(N2CCN(c3ccc(NC(=O)C4CCCCC4)cc3C#N)CC2)cc1	-25.8	x	x	-0.2
53	COc1ccc(S(=O)(=O)Nc2ccccc2C(=O)NC(C)C)cc1OC	-44.6	21.5	7.1	-10.1
54	COc1ccc(NS(=O)(=O)c2cccc(C(=O)N3CCCC3)c2)cc1	-14.6	-0.1	1.5	4.0
55	Cc1sc(=NC(=O)c2ccco2)n(C)c1-c1ccc(F)cc1	-89.9	25.2	17.5	3.8
56	COc1ccc(S(=O)(=O)N2CCOC2CNC(=O)C(=O)NCCCn2ccnc2)cc1OC (stereo not given)	0.4	-4.9	-2.9	0.5

item	Bead autofluor	ugtP null kill	BJeLR viability
49	3507	-0.9	9.6
50	3505	19.3	9.3
51	x	-1.2	x
52	2702	-7.7	-1.7
53	x	0.6	-2.4
54	u	-0.1	-14.1
55	2856	-13.4	-0.9
56	6574	-1.3	9.5

item	compound	PrP UTR inh	Mtb hypoxia inh	Mtb hypoxia inh growth	RN4220 kill
57	CCS(=O)(=O)N1CCCC(C(=O)NCCc2ccccc2)C1 (stereo not given)	-29.0	12.6	14.0	6.6
58	Cc1cc(C)cc(NC(=O)CCCSc2nc3ccccc3[nH]2)c1	-17.8	0.0	5.3	4.6
59	CC(C)Cc1nnc(NC(=O)c2cc([N+](=O)[O-])ccc2N2CCOCC2)s1	-22.6	-0.4	-0.6	26.2
60	Cc1ccccc1Cn1cc(NC(=O)c2noc(C(C)C)c2[N+](=O)[O-])cn1	-27.2	1.7	14.6	33.6

item	Bead autofluor	ugtP null kill	BJeLR viability
57	12489	10.6	0.6
58	2206	-5.5	-4.5
59	6181	0.7	-1.7
60	5958	23.7	-0.1
